CapD inh: inhibitors of Bacillus anthracis CapD enzyme. z-score (concentration not given with the values). AID 492967. actives 0.23% (n = 140,000). purified CapD enzyme, fluorescence intensity read-out; hits give low values; some hits fall short of the stated cut;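 active = z-score under -4 in either of two replicates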;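 also: stock transfer was 100 nL into about 40 µL; score is relative to mean and spread of the plate; one replicate is shown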
AID504770: growth inhibitors of E. coli YBA685 in a screen for V. cholerae RctB (chromosome II replication) inhibitors; AID 504770; actives 0.27% (n = 130,000); E. coli YBA685 rctB-dependent plasmid, OD600 growth, 3 h; hits give low values; z-score (concentration not given with the values);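 active = z-score under -2 on both plates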;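 also: wells of about 30 µL received 100 nL stock; score is relative to mean and SD of the test wells; the first replicate is given; strong numbers were not always called active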
* hit, by the source's call; . = not tested or not shown; & = joins results of further samples. No enrichment for hits; about 0.41% have a hit in one of these screens.

Compound	CapD inh	AID504770
COc1ccc(C2C3=C(CCCC3=O)N(CC(=O)O)C3=C2C(=O)CCC3)cc1	7.5	0.05
CC(=O)N(Cc1cccnc1)Cc1cc2cc3c(cc2[nH]c1=O)OCCO3	.	-0.2
COC(=O)c1ccc(-n2nc(C)cc2C)cc1	.	-0.05
CN(C)C(=S)SCC(=O)Nc1cccc(C(F)(F)F)c1	.	-0.1
O=C1c2ccccc2C(=O)N1CCc1cn2cccnc2n1	23	-3.5
O=C(c1ccc([N+](=O)[O-])cc1)N1N=C(C(F)(F)F)CC1(O)c1ccncc1 (centres undefined)	-1.2	.
CCN(CC)CCn1c2ccccc2c2nc(C)sc21	0.17	-0.15
Cc1[nH]c2ccccc2c1C(=O)CN1CCN(S(=O)(=O)c2ccccc2F)CC1	.	-0.25
Cc1nn(-c2ccccc2)c2nc3c(cc12)C(=O)CCC3	0.81	0.35
FC(F)(F)c1cccnc1Oc1ccc(C2=NCCS2)cc1	0.47	0.1
CCOC(=O)c1ccc(-c2ccc(/C=C3\SC(NC(C)=O)=NC3=O)o2)cc1	0.02	.
O=C(NCc1ccc(F)cc1)c1ccc2c(c1)ncn2-c1ccc(F)cc1F	0.68	.
Cc1cc(C)nc(/N=C/c2ccccc2O)c1	-1.2	1.4
O=C(O)c1c[nH]c2ccc(S(=O)(=O)N3CCN(c4ccc(F)cc4)CC3)cc2c1=O	4.8	.
CCOc1ccc(N2C(=O)/C(=C/c3ccc(Br)cc3)NC2=S)cc1	-0.9	.
CC(C)c1ccccc1NC(=O)COC(=O)c1ccc2ccccc2n1	0.29	0.8
CSc1sc(-c2ccccc2)c2[n+]1CC(=O)N2	-1.4	1.9
O=C(CSCc1ccccc1)Nc1nnc(CSCc2ccccc2)s1	0.32	-0.05
Cc1c(NC(C)C)c(=O)n(-c2ccccc2)n1C	-0.05&0.92	-0.2
Cc1cccc(NC(=O)c2sc3[nH]c(=O)c(C(=O)O)cc3c2N)c1C	-0.06	-0.25
CCn1c(=O)c2sccc2n2c(CCCC(=O)NCc3cccnc3)nnc12	-1.4	1.4
CSc1sc(-c2ccnc(SCC(N)=O)n2)c(-c2ccccc2)c1C#N	2.5	0.65
CC(C)COc1cccc(OCC(=O)Nc2ccc(F)cc2)c1	-0.04	-0.2
Cc1cccc(C2N(Cc3ccccc3)CCCN2Cc2ccccc2)n1	0.17	2
COc1ccccc1N1CCN(c2nc(C)nc3sc4c(c23)CCC4)CC1	-0.12	.
COC(=O)Cn1ncn2nc(-c3cccs3)cc2c1=O	0.51	-0.15
CC(Oc1ccccc1)c1nnc(N)s1 (centres undefined)	.	0.75
CCOc1ccc(/C=C/C(=O)NC(C)C)cc1	0.18	-1.1
COc1ccc(N2CCN(C(C)=C3C(=O)c4ccccc4C3=O)CC2)cc1	-2.6	1.8
O=C(CSc1ccc(-c2ccncc2)nn1)Nc1ccccc1	0.21	-0.45
O=C(NCc1ccc2c(c1)OCO2)c1ccc(N2CCCCS2(=O)=O)cc1	.	-0.45
Cc1cc(=O)oc2cc(OCc3ccc(C(=O)O)cc3)ccc12	.	-0.05
CCOC(=O)c1ccccc1NC(=O)C1COc2ccccc2O1 (centres undefined)	-0.09	.
c1ccc2[nH]c(SN3CCCCC3)nc2c1	17	0.1
COc1ccc(-c2cc(C(=O)NC3CCCC3)c3ccccc3n2)cc1	0.59	-0.25
CCCCc1ccc(NC(=O)CC)cc1	-0.46	-0.6
CC(C(=O)O)n1ncc2ccccc2c1=O (centres undefined)	.	-0.85
CCOC(=O)N1CCN(C(=O)CC2=C(C)/C(=C/c3ccc(S(C)=O)cc3)c3ccc(F)cc32)CC1 (centres undefined)	3.6	.
Cc1nc(N)[nH]c(=O)c1CCC(=O)O	.	-0.2
Cc1cc(C)c2c(=O)cc(C(F)(F)F)oc2c1	-0.36	0.15
O=C(O)CCC(=O)N1CCSc2ncccc21	0.18	0.55
Cc1ccn2c(NC(=O)/C=C/c3ccccc3)c(-c3ccccc3)nc2c1	-0.53	.
O=C1CCCC2=C1C(c1ccccc1O)C1=C(CCCC1=O)O2	-0.27	-0.1
COC(=O)C1=C(C)N(C2CCCC2)C(=O)C1(NC(C)=O)C(F)(F)F (centres undefined)	-0.93	-0.8
c1ccc(CN(Cn2nnc3ccccc32)Cn2nnc3ccccc32)cc1	-0.32	1
Cc1ccc(S(=O)(=O)N2CCOCC2)s1	0.65	-0.85
Cc1ccc(N2CCN(C(=O)OCCc3c(C)cc(C)cc3C)CC2)c(C)c1	0.4	.
COc1ccccc1C(=O)NCc1ccc2[nH]c3c(c2c1)CCCC3	21	-0.3
CCc1cc(Br)ccc1S(=O)(=O)N1CCCC1C(N)=O (centres undefined)	0.33	.
CC(C)n1c(-c2ccc(N(C)C)cc2)nc2ccccc21	81	-0.45

(more compounds)
Compound	CapD inh	AID504770
NC(=O)C1OC(c2ccccc2)OC1C(N)=O (centres undefined)	-0.12	0.05
O=C(O/N=C\c1ccc(N2CCOCC2)c([N+](=O)[O-])c1)c1ccccc1Cl	-1.5	.
CCOc1cc2c(cc1C(C)(C)C)NC(=O)CS2	0.51	1.1
O=C(O)Cc1coc(-c2ccc(F)cc2)n1	-0.02	1.1
Cc1ccc(C2c3c(oc4ccccc4c3=O)C(=O)N2Cc2ccco2)cc1 (centres undefined)	-0.23	0.85
O=C1NN(c2ccc(Cl)c(Cl)c2)C(=O)/C1=C\C=C\c1ccccc1	-0.16	0.25
COc1cc(C2C(C#N)=C(N)Oc3c2c(=O)oc2ccccc32)ccc1OC(=O)c1ccco1 (centres undefined)	0.51	.
CC1=C(c2ccc(F)cc2)N2CCS(=O)(=O)N=C2S1	.	0.4
COC(=O)c1ccc(S(=O)(=O)NC2CCN(Cc3ccccc3)CC2)n1C	0.7	-0.8
N#Cc1ccc(CSc2nnnn2C2CC2)cc1	.	-0.3
CCN=C1N=C(c2ccccc2)N=P(NCC)(NCC)N1	0.17	-0.3
N#Cc1sc(=S)n(-c2ccccc2)c1N	-0.57	-0.3
CCC(=O)N(c1ccc2c(c1)CCN2S(C)(=O)=O)C1CCN(C(C)=O)CC1	0.53	.
Cc1onc(NC(=O)NC(=O)c2c(F)cccc2Cl)c1Br	-0.23	.
Cc1cc(C)c(S(=O)(=O)N2CCC(C(=O)OC(C)C(=O)N3CCC(C)CC3)CC2)c(C)c1 (centres undefined)	.	1.1
CN(Cc1ccccc1F)C(=O)CNC(N)=O	.	0.55
COc1ccc([C@H]2C(C#N)=C(N)OC3=C2C(=O)CC(C)(C)C3)c([N+](=O)[O-])c1OC	-0.29	.
c1cc(-c2cn[nH]c2)ccn1	-0.26	.
Cc1nnsc1SCCNS(=O)(=O)c1ccc(Cl)cc1	-0.39	.
CN(C)C(=S)N/N=C1\C(=O)C(c2ccccc2)(c2ccccc2)c2ccccc21	-0.54	.
N#CC1=C(SCC(=O)Nc2ccccc2)NC(=O)CC1c1ccccc1F (centres undefined)	-0.34	-0.7
COCCNc1cnn(C23CC4CC(CC(C4)C2C(=O)O)C3)c(=O)c1Cl (centres undefined)	-2.4	1.2
O=[N+]([O-])c1ccc(Oc2ccc(F)cc2F)nc1	-1.1	.
C=CCn1c(SCC(=O)Nc2ccccc2)nc2scc(-c3cccs3)c2c1=O	.	-0.2
CC(=O)NC(=O)c1cc2cc(Cl)cc(Cl)c2oc1=Nc1cccc(F)c1	0.74	.
CCc1ccc2c(CN3CCN(Cc4ccccc4)CC3)cc(=O)oc2c1	.	-0.35
Cc1ccc(S(=O)(=O)NC(=O)Nc2ccccc2)cc1	.	0.5
Cc1[nH]nc2c1C1(C(=O)Nc3ccccc31)C(C#N)=C(N)O2 (centres undefined)	-0.6	.
CC(NC(=O)Oc1c(Cl)cc(Cl)c2ccccc12)(C(F)(F)F)C(F)(F)F	13	-1.2
Cc1onc(-c2c(F)cccc2Cl)c1C(=O)OCC(=O)N(C)c1ccccc1	.	-0.2

Part of the list above, field by field.
N#CC1=C(SCC(=O)Nc2ccccc2)NC(=O)CC1c1ccccc1F (centres undefined)
  CapD inh: -0.34	AID504770: -0.7
COCCNc1cnn(C23CC4CC(CC(C4)C2C(=O)O)C3)c(=O)c1Cl (centres undefined)
  CapD inh: -2.4	AID504770: 1.2
O=[N+]([O-])c1ccc(Oc2ccc(F)cc2F)nc1
  CapD inh: -1.1	AID504770: .
C=CCn1c(SCC(=O)Nc2ccccc2)nc2scc(-c3cccs3)c2c1=O
  CapD inh: .	AID504770: -0.2

The list goes on:
Compound	CapD inh	AID504770
CC(=O)c1ccc(N2CCN(S(=O)(=O)c3cc(Cl)sc3Cl)CC2)cc1	11	.
CN(C)CCCNc1ncnc2ccc(Br)cc12	.	-0.35
O=C(Nn1cnnc1)c1cc2ccccc2oc1=O	.	-0.55
Cn1ccnc1SCC(=O)Nc1ccccn1	-0.13	0.85
COc1ccccc1N1CCN(S(=O)(=O)c2ccc(F)c(C(=O)Nc3ccccc3Br)c2)CC1	-0.32	.
O=C(CSc1ncnc2ccccc12)Nc1ccc2c(c1)OCO2	0.045	0.6
COc1cc(NS(=O)(=O)c2cc([N+](=O)[O-])ccc2C)c(OC)cc1Cl	-0.79	.
CC(C)(C)c1ccc(C(=O)N/C(=C\c2ccc([N+](=O)[O-])cc2)C(=O)Nc2cc(Cl)ccc2Cl)cc1	-0.35	.
COCCOC(=O)C1=C(C)NC2=C(C(=O)CC(c3ccc(OC)c(OC)c3)C2)C1c1ccc(Cl)c(Cl)c1 (centres undefined)	8.7	.
CC1CC(C)CN(C(=O)Cn2c(=O)n(CCCC(=O)NCc3ccc4c(c3)OCO4)c(=O)c3sccc32)C1 (centres undefined)	1.2	-0.2

An excerpt of these results, field by field.
molecule: FC(F)(F)c1cccnc1Oc1ccc(C2=NCCS2)cc1
  CapD inh: 0.47; AID504770: 0.1
molecule: CCOC(=O)c1ccc(-c2ccc(/C=C3\SC(NC(C)=O)=NC3=O)o2)cc1
  CapD inh: 0.02; AID504770: .
molecule: O=C(NCc1ccc(F)cc1)c1ccc2c(c1)ncn2-c1ccc(F)cc1F
  CapD inh: 0.68; AID504770: .
molecule: Cc1cc(C)nc(/N=C/c2ccccc2O)c1
  CapD inh: -1.2; AID504770: 1.4

(more compounds)
Compound	CapD inh	AID504770
Cc1ccc(NC(=O)N(C2=NCC(C)(C)S2)c2ccc(F)c(Cl)c2)cc1	-0.04	-0.5
c1ccc(N2CCN(c3nnc(Cc4cccnc4)c4ccccc34)CC2)nc1	-0.63	-0.3
CN(C(=O)CSc1nc2ccc(Br)cc2c(=O)n1Cc1ccco1)C1CCS(=O)(=O)C1 (centres undefined)	.	0.25
CC1SCC(=O)N(CC(=O)Nc2ccc3c(c2)OCO3)C1=O (centres undefined)	.	2.3
CCOC(=O)CNC(=O)c1cccnc1SC	-0.16	.
CCOC(=O)c1ccc2c(c1)nnn2CCc1ccccc1	.	-0.5
Cc1ccsc1C(=O)OCC(=O)N1CCC(Cc2ccccc2)CC1	-0.23	0.4
O=C(NN=Cc1ccc(O)cc1)c1ncn[nH]1	-1.3	-0.65
O=C(Cn1c(SCc2cccc(F)c2)nc2ccncc21)NCCC1=CCCCC1	-0.42	-0.1
COc1ccccc1-n1cnc2cc(C(=O)NCC3CCCO3)ccc21 (centres undefined)	0.24	-0.15
CCOc1ccc(OC(C)C(=O)O)cc1 (centres undefined)	.	-0.8
N#CCOC(=O)c1c2c(nc3ccccc13)CCC2	.	0.7
CCC1=Nc2cc(C(=O)O)ccc2Sc2ccc(Cl)cc21	-0.035	-0.4
CCn1c(NN)nc2ccccc2c1=O	.	0.3
CCOC(=O)c1c(NC(=O)C(C)Sc2nnc(CNC(=O)c3cccs3)n2C)sc2c1CCCCC2 (centres undefined)	-0.65	.
O=C1C2C3c4ccccc4C(c4ccccc43)C2C(=O)N1C(CO)(CO)CO (centres undefined)	.	2.2
N/C(COc1ccc(Cl)cc1)=N\O	-0.095	.
CCN(CC)S(=O)(=O)c1cc(C)ccc1NC(=S)NCCN1CCOCC1	.	-0.25
CNC(=O)c1c(-c2ccc(C)cc2)nc2ccccn12	.	-0.05
N#CC(C#N)=NNc1ccccc1Oc1ccc(Cl)cc1Cl	-2.3	.
COc1ccc(C(CC(=O)O)NS(=O)(=O)c2ccccc2F)cc1OC (centres undefined)	.	-0.2
c1ccc2c(c1)nc(Nc1ccc3c(c1)OCO3)c1nnnn12	-0.32	-0.25
Cc1ccc(Nc2cc(C)nc(NCc3ccccc3)n2)cc1	0.16	.
CC1(C)OCC([C@H]2O[C@@H]3OC(C)(C)OC3C2OC(=O)Nc2ccc(Cc3ccc(NC(=O)OC4C5OC(C)(C)O[C@H]5O[C@@H]4C4COC(C)(C)O4)cc3)cc2)O1 (some centres undefined)	-0.27	.
O=C1NC(=Nc2cccc3ccccc23)SC1(CO)CO	19	-0.25
C(=Nc1cccc2ccccc12)c1ccc(Sc2nnnn2-c2ccccc2)o1	-0.26	-0.45
